Assay outcomes deposited in PubChem by several laboratories.
Vif A3G – HIV-1 Vif–A3G interaction blockers – biochemical, TR-FRET, GST-Vif 1-94, biotin-A3G peptide, dose response retest, primary screen (AID 1117319); 260,000 compounds, 0.57% hits; one-dose inhibition, %; IC50 in µM for titrated hits; TR-FRET GST-Vif / biotin-A3G peptide binding; higher % means a stronger effect; test concentration not given here; strong numbers were not always called active;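 active = above the screen mean plus three standard deviations and confirmed in dose response; inconclusive = results disagree or hit not tested in dose response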;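 note: Vif residues 1-94 fused to GST binding biotinylated APOBEC3G peptide 110-148; 0% = full assay without inhibitor and 100% = GST in place of GST-Vif; retest series ran down from 100 µM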
UCH37 DUB inh – inhibitors of human deubiquitinating enzyme UCH37; inhibition, % (no concentration beside the values); AID 588478; purified proteasome/UCH37, Ub-AMC cleavage fluorescence; 330,000 compounds, 0.33% hits; Q9Y5K5;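 active = mean of two replicates above 20%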;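 note: 0% = compound-free wells with enzyme and 100% = wells lacking proteasome; stock transfer was 100 nL into about 20 µL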
Target sequence (Q9Y5K5 whole entry, looked up): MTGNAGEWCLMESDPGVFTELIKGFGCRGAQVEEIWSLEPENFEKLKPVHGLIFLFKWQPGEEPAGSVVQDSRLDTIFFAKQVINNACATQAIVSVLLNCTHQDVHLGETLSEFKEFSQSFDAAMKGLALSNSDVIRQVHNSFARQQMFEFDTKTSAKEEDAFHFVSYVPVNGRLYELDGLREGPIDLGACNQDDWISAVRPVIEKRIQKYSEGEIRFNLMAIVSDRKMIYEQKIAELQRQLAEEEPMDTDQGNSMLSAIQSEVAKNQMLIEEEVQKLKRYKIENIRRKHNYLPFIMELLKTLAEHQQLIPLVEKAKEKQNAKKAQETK
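Material: human UCH37 enzyme supplied as purified proteasome complex. Measure: % inhibition of Ub-AMC cleavage fluorescence. Medium: pH 7.4 Tris-HCl (50 mM) with ovalbumin, ATP-MgCl2, DTT. Times: 30 min preincubation with enzyme, 25 min cleavage at room temperature. Detection: AMC fluorescence intensity at 355/460 nm.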
FGF22 binding – binders of recombinant human FGF22 by thermal shift | Q9HCT0 | SYPRO orange fluorescence; percent of sucrose octasulfate shift, DMSO zero | calls only at 9.99 µM | 340,000 compounds, 1.5% hits;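 active = melting point raised past a set limit in the mean and every replicate; inconclusive = no clear call; three in four hits are not shown here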
Target sequence (Q9HCT0 whole entry, looked up): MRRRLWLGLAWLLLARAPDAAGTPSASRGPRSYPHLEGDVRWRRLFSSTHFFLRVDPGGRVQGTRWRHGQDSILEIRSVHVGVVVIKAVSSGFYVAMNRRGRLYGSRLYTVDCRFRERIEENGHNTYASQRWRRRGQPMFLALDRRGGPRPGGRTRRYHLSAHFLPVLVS
RanGTP-Imp inh – inhibitors of RanGTP-importin-beta interaction, primary screen, biochemical, FRET, CFP-Ran, YFP-importin-beta, homogeneous; cell-free CFP-Ran/YFP-importin-beta FRET ratio; inhibition, % (no concentration beside the values); 300,000 compounds, 1.1% hits;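 active = most replicates above 15%; inconclusive = exactly half above 15%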;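 note: 0% = DMSO wells and 100% = Ran loaded with GDP instead of GTP; wells of about 40 µL received 100 nL stock; the first replicate is given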
MLL AF4-AF9 inh – inhibitors of human MLL-AF4/AF9 interaction; P42568; AlphaScreen, biotin-AF4 peptide binding to FLAG-AF9; inhibition, % at 10 µM; 350,000 compounds, 0.47% hits; AID 651704;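 active = every replicate reaching a set inhibition limit, whatever the replicate mean, cut at about 25% in these data; inconclusive = mean inhibition reaches that limit but some replicates miss it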;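 note: 0% = plate neutral control median and 100% = total signal loss; the record names both 10 and 1 µM as test concentration; the first replicate is given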
E coli growth – E. coli growth inhibition; Escherichia coli growth, OD600, 23 h; stronger effect = lower value; OD600 absorbance (test concentration not listed); 330,000 compounds, 0.21% hits; AID 1053175;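 active = OD600 absorbance below the run mean of sample wells minus 3.6 SD, in any replicate, cut at about 0.56 in these data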;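 note: stock transfer was 300 nL into about 60 µL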
HNF4A DNA FP – change in binding of human HNF4 alpha to DNA | P41235 | HNF4a-FITC DNA binding, fluorescence polarization, 1 h | activity change, % at 10 µM | 360,000 compounds, 0.3% hits | AID 1224865; in the data active = activity change above about 30%, passing the limit was not always enough;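 note: controls were the assay level and a saturating level of protein; the project sought stronger binding though the title names inhibitors; some compounds called inactive have numbers as strong as hits; positive values seem to mean higher polarization but the record does not say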
Target sequence (P41235 whole entry, looked up): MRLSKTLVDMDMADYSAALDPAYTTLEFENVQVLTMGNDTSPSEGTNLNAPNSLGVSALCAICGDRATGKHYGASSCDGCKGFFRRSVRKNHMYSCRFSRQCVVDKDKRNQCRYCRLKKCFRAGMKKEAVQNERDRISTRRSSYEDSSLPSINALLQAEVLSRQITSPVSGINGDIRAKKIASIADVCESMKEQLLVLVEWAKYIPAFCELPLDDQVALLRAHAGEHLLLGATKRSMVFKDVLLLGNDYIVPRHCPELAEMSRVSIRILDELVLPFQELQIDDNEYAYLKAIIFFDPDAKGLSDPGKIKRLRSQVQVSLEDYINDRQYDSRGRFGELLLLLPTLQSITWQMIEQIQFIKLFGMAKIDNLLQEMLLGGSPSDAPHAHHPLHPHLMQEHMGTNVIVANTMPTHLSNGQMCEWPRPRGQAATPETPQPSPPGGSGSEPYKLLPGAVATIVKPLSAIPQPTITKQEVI
* marks the source's active call; other numbers are inactive results; i = inactive; ? = inconclusive; / = not tested or not shown; & = joins results of further samples. This is a subset; rates above refer to the full screens.

Structure,Vif A3G,UCH37 DUB inh,FGF22 binding,RanGTP-Imp inh,MLL AF4-AF9 inh,E coli growth,HNF4A DNA FP
O=C(CN1C(=O)/C(=C/c2ccc(F)cc2)SC1=S)NC1CCS(=O)(=O)C1 (stereo not given),/,7.8,i,1.4,2.4,0.664,3.5
CC(C)(C)c1ccc(S(=O)(=O)N2CCN(Cc3cc4c(cc3O)OCO4)CC2)cc1,-0.1%,2.7,i,/,0.5,0.649,-1.9
O=C(N/N=C/c1ccc(OC(F)F)cc1)c1ccc(Br)cc1,5.0%,/,/,2.2,/,/,0.3
O=C(O)CCC(=O)N(Cc1ccccc1)Cc1ccccc1,/,2.7,i,2.1,0.7,0.67,-2.5
CCOC(=O)c1cc2occc2n1CC(=O)N1CCCc2ccccc21,16.1%,2.6,/,0.9,/,0.666,4.3
CCOc1ccc(NC(=O)CC2SC(=O)N(c3ccccc3)C2=O)cc1 (stereo not given),13.3%,9.1,i,1.1,-11.8,0.695,-3.2
O=C(N1CCN(c2ccccc2)CC1)C1(c2cccs2)CCOCC1,15.5%,1.0,/,2.3,/,/,-0.5
Cc1cccc(C(=O)N2CCN(c3ccc(N4CCOCC4)nn3)CC2)c1,?,-154.4,i,-4.4,-8.2,0.677,6.0
CC(C)CCNC(=O)CCCOc1cc(=O)n(C)c2ccccc12,2.0%,3.5,/,10.7,/,0.638,3.2
COc1ccccc1NC(=O)COc1cccnc1[N+](=O)[O-],/,1.5,i,/,-2.9,0.659,-0.8
CC(C)(C)Nc1nc2cc([N+](=O)[O-])ccc2o1,-5.1%,10.6,i,-1.2,-0.5,0.641,-6.2
COCCNC(=O)C1(C)CCCN(C(=O)c2cccc(C#N)c2)C1 (stereo not given),/,/,i,/,-1.1,/,-2.6
O=C(OC1CCOC1=O)c1cc(-c2ccc(Br)cc2)nc2ccccc12 (stereo not given),-4.0%,-12.8,/,0.3,/,0.657,-0.5
O=C(OCc1cn([C@@H]2C[C@H](c3ccc(Cl)cc3)N(C(=O)c3cccs3)C[C@H]2O)nn1)c1ccccc1,/,/,i,/,-2.6,/,-1.1
Cc1noc(NS(=O)(=O)c2ccc(NC(=O)Nc3ccc(Cl)c(Cl)c3)cc2)c1C,?,3.0,/,-3.0,/,0.72,0.8
Cn1cc(CN2CCc3sccc3C2)c(-c2ccccc2F)n1,/,2.7,i,-0.7,-0.1,0.695,2.3
CCc1ccc2c(c1)c1nc(C)sc1n2CC(=O)OC,21.4%,3.7,/,1.1,/,0.735,3.5
Cn1cc(CN2CCCC(C(=O)c3cc(F)ccc3F)C2)c2ccccc21 (stereo not given),/,3.8,i,0.3,11.0,0.668,-1.0
COc1cc2c(cc1OC)[C@@H](NC(=O)Cc1ccc(F)cc1)[C@H](OCc1ccccc1)C2,-1.0%,-0.5,i,/,-0.5,0.703,13.4
Cc1nc2c(O)c3c(c(O)c2nc1C)C1C=CC3CC1,/,/,i,/,-4.2,/,-1.2
COc1ccc(NC(=O)CSc2nc(=O)n(CCN3CCOCC3)c3c2CCCC3)c(OC)c1,/,/,i,0.0,-4.8,/,-0.3
CN(C)CCCn1c(=O)n(CCc2ccccc2)c(=O)c2c3c(sc21)CCCCC3,-13.4%,-3.3,i,1.7,22.9,0.603,2.7
COC(=O)[C@@]1(Cc2ccc(F)cc2)[C@H]2c3cc(C(=O)N(C)C)n(CCc4c[nH]c5ccc(O)cc45)c3C[C@H]2CN1C(=O)c1ccccc1,/,/,i,/,9.2,/,7.4
Cn1c(=O)oc2cc(S(=O)(=O)NCCCN3CCCC3=O)ccc21,-0.5%,2.7,i,5.6,1.1,0.646,-2.3
CCCCNC(=O)C1(C)CCN1C(=O)Cc1ccc(OC)cc1 (stereo not given),/,/,i,/,0.3,/,3.0
CCC(NS(=O)(=O)c1ccc(OC)cc1)C(=O)O (stereo not given),4.4%,0.8,/,3.3,/,0.696,-2.3
CN(CC(=O)NCc1ccccc1)S(=O)(=O)c1cnc[nH]1,1.7%,0.7,i,-1.5,5.7,0.71,-2.2
O=C(Nc1cccc2[nH]ncc12)NS(=O)(=O)c1ccccc1,-2.6%,1.0,i,6.0,-1.7,0.676,-4.9
CC1CCCCN1C(=O)c1cc(-c2ccc(Cl)c(Cl)c2)on1 (stereo not given),5.5%,1.8,/,1.3,/,0.649,0.3
COC(=O)CN1C(=O)C2(C(C#N)=C(N)Oc3c2c(C)nn3-c2ccccc2)c2ccccc21 (stereo not given),16.8%,2.2,/,2.0,/,0.667,-0.2
Cc1nc2sc(C(c3ccco3)N3CCc4ccccc4C3)c(O)n2n1 (stereo not given),/,3.6,/,0.9,/,0.644,1.8
CCOC(=O)c1sc2nc(SC)nc(-c3ccc(Cl)cc3)c2c1N,0.0%,-42.0,/,-2.3,/,0.754,2.7
Cc1nc2ccccn2c1C(=O)N/N=C/c1ccc([N+](=O)[O-])o1,-5.2%,/,i,/,-0.4,/,-20.8
CCCCC(=O)Nc1ccc(NC(=O)C2CC2)cn1,-0.4%,1.2,/,-3.1,/,0.709,0.2
CC(C)CC(=O)Nc1cc2c3c(c1)CCN3C(=O)CC2,7.1%,-0.8,i,12.0,-3.4,0.691,-1.9
Cc1cc2c(c(=O)o1)C(C1C=CCCC1)C(C#N)=C(N)O2 (stereo not given),21.9%,1.2,/,2.2,/,0.662,-0.3
Cc1ccc(S(=O)(=O)N(C)C[C@@H]2Oc3ncc(Br)cc3C(=O)N([C@H](C)CO)C[C@H]2C)cc1,-3.2%,/,i,/,-3.0&-3.0&-1.3,/,1.9
CC(C)Oc1ccc(S(=O)(=O)N2CCCCC2)cc1NC(=O)C1CCCC1,2.5%,1.1,i,/,-0.4,0.667,-0.5
COc1cccc(-c2cc(C(=O)Nc3cnn(Cc4ccccc4C)c3)no2)c1,>100µM*,-26.2,/,2.5,/,0.648,6.2
COc1ccc(NS(=O)(=O)c2c(C)cc(C)cc2C)cc1,2.8%,2.4,/,?,/,0.688,2.8
CCOC(=O)c1c(C)[nH]c(C)c1C(=O)CSc1nc2ccccc2[nH]1,/,2.3,/,-1.4,/,0.676,-2.9
Cc1ccc(F)c(NC=C2C(=O)OC(C)(C)OC2=O)c1,-11.9%,-1.7,i,0.4,-1.8,0.669,-0.9
O=P(O)(COc1ccccc1)COc1ccccc1,8.2%,3.2,/,-2.5,/,0.736,-0.7
O=c1c2cc(Br)ccc2nc(-c2ccc([N+](=O)[O-])cc2)n1O,31.1%,5.4,i,-4.2,0.4,0.619,-2.4
S=C(Nc1ccc(Cl)cc1Cl)N1CCOCC1,/,2.7,i,3.5,-8.6,0.72,1.4
COCCn1c(N)c(N(Cc2ccccc2)C(=O)C2CCCC2)c(=O)[nH]c1=O,3.0%,2.0,i,-4.3,2.8,0.691,2.7
Cc1ccc(C(=O)CCCn2nnc(-c3cccnc3)n2)cc1C,-0.7%,2.5,/,?,/,0.696,-0.2
Cc1nn(CCc2n[nH]c(=S)n2-c2ccc(F)c(Cl)c2)c(C)c1[N+](=O)[O-],4.3%,2.4,/,2.9,/,0.652,5.9
Cc1cccc(-c2noc(CNC(=O)COc3ccccc3C)n2)c1,3.2%,4.9,i,2.7,-0.7,0.637,3.0
COc1ccccc1CSc1nc2c(c(=O)n(C)c(=O)n2C)n1C,-4.2%,2.8,i,?,-0.1,0.689,-1.9
CCn1c(SCC(=O)Nc2oc(-c3ccccc3)c(-c3ccccc3)c2C#N)nnc1-c1ccncc1,-1.0%,2.5,/,?,/,0.701,-2.1
COc1cc2cc(C)c(SCC(=O)N3CCOCC3)nc2cc1OC,2.3%,6.4,/,8.5,/,0.632,-2.5
CNc1ccc(Cl)nn1,/,-3.5,i,-1.3,-15.2,0.719,-1.2
O=C(CN1CCN(S(=O)(=O)N2CCCCCC2)CC1)Nc1ccc(Br)cc1,0.2%,1.1,i,5.8,-3.4,0.682,-2.5
Cc1ccc(NC(=O)CCCn2c(=S)[nH]c3ccsc3c2=O)cc1C,-2.7%,-5.3,i,3.6,-7.7,0.639,4.0
CNC(=O)c1ccc(NC(=O)Cc2ccc(S(=O)(=O)N3CCOCC3)s2)cc1,-2.1%,2.1,i,0.9,9.4,0.623,2.2
CN1CCN(C(=O)/C(=C/c2cn(S(=O)(=O)N(C)C)c3ccccc23)NC(=O)c2ccccc2Cl)CC1,/,6.4,i,4.5,1.8,0.67,1.9
COc1ccc(C(=O)NNC(=O)C2CCN(S(=O)(=O)c3ccc(C)cc3)CC2)cc1,8.8%,3.7,i,-0.3,0.3,0.661,0.1
C=CCn1c(SCc2nnc(-c3ccccc3)o2)nnc1C(O)c1ccccc1 (stereo not given),5.1%,4.9,/,3.5,/,0.708,-4.2
O=S(=O)(c1ccc(Br)cc1)N1CCN(c2ccc3nnc(-c4ccccc4)n3n2)CC1,1.2%,-2.8,i,2.2,-3.6,0.794,4.1

Later entries.
Structure,Vif A3G,UCH37 DUB inh,FGF22 binding,RanGTP-Imp inh,MLL AF4-AF9 inh,E coli growth,HNF4A DNA FP
COc1cc(C(=O)Nc2ccc(F)cc2Cl)ccc1OCC(=O)N1CCOCC1,-0.8%,0.2,i,3.4,-1.3,0.654,9.8
COc1ccc(OC(C)C(=O)NCCc2nc3ccccc3[nH]2)cc1 (stereo not given),-1.0%,2.0,/,-0.5,/,0.635,2.1
COc1ccc(CCNS(=O)(=O)c2ccc(F)cc2)cc1OC,?,1.3,i,?,-45.2,0.668,-1.8
CCN(CC(=O)NC(=O)NC1CCCCC1)Cc1ccccc1,-2.6%,0.5,i,8.4,-11.9,0.696,5.9
COc1ccc(CNC(=O)COC(=O)CCCOc2ccc(Cl)cc2Cl)cc1OC,/,4.7,/,2.5,/,0.699,-1.0
COC(=O)Cn1c2c(c3cc(C)ccc31)CCCC2,13.8%,0.0,/,-0.6,/,0.693,-2.7
Cc1cc(=O)oc2cc(OCC(=O)Nc3ccc(N4CCC(C)CC4)cc3)ccc12,/,4.0,i,0.5,0.7,0.687,2.2
O=C(Nc1cc(S(=O)(=O)N2CCOCC2)ccc1N1CCOCC1)c1ccccc1Cl,-5.4%,1.4,i,/,9.4,0.684,-0.5
c1ccc(SCc2cn(C[C@H]3CC[C@@H]([C@@H]4CC[C@H](Cn5cc(CSc6ccccc6)nn5)O4)O3)nn2)cc1,/,1.2,i,1.1,-9.4,/,0.5
Cc1ccc(C)c(-n2cc(CN3CCNC(=O)CC3)c(-c3ccccc3)n2)c1,?,-3.9,i,2.9,3.5,0.67,-1.3
CC1(C)NC(=O)N(CC(=O)OCc2cc(=O)n3cc(Br)ccc3n2)C1=O,/,-2.3,/,-1.6,-0.1,0.717,-0.5
Cc1ccccc1CSCCNC(=O)COc1ccc(Cl)cc1,/,1.0,/,-2.9,/,0.673,-0.5
CC(=O)c1ccc(N2C(=NC(=O)COc3ccccc3)SC3CS(=O)(=O)CC32)cc1 (stereo not given),-2.7%,4.6,i,9.2,-1.3,0.695,4.3
COc1ccc(N(CC(=O)N2CCCC2)S(C)(=O)=O)cc1,-2.7%,-0.8,i,3.9,-7.4,0.675,-0.4
